Screening data from PubChem BioAssay.
Mtb hypoxia rep: PubChem AID 1159583. M. tuberculosis hypoxia-regulated fluorescent reporter, fluorescence. fluorescence inhibition, % (test concentration not listed). hit rate 0.1% among 300,000;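 active = 35 to 45% if threefold the growth effect, above 45% if 1.5-fold the growth effect; inactive = the rest, general growth blockers included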;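 also: wells of about 50 µL received 100 nL stock; 0% = vehicle wells and 100% = reference inhibitor wells; whole bacteria with a GFP reporter of the hypoxia response; strong numbers were not always called active; many hits fall short of the cut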
BJeLR viability: MLPCN primary cell-based screen for lethality selective to Ras in HRASV12 cells; BJeLR (HRASV12) viability, CellTiter-Glo ATP luminescence, 48 h; reference of the scale not given here; inhibition, % (no concentration beside the values); hit rate 0.17% among 300,000; AID 1554, 2009;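 active = replicate mean above 50%; inconclusive = above 50% but judged a plate artefact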;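 also: 50 nL library stock added to about 25 µL; numbers are from one replicate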
PrP 5UTR inh: inhibition of PrP 5' UTR reporter expression. inhibition, % (concentration not given with the values). cell-based PrP 5' UTR mRNA reporter, plate reader. hit rate 0.35% among 340,000;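 active = every replicate at 50% or more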;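 also: 0 = median of the neutral control wells; tested in H4 reporter cells; numbers are from one replicate; inactives centre near -14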
RN4220 kill: growth inhibition of S. aureus RN4220, primary screen, OD600; 16 h; inhibition, % (test concentration not listed); hit rate 0.33% among 330,000; AID 1259311, 2017;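 active = z-score of -3 or lower and OD600 up to 0.18 on both plates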;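 also: plate controls were untreated cells for no effect and reference antibiotic for full effect; stock transfer was 100 nL into about 80 µL; one replicate is shown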
Autofluor counter: flagged as autofluorescent in microsphere protease counterscreen; compound autofluorescence counterscreen, microsphere flow cytometry; stronger effect = higher value; fluorescence intensity (test concentration not listed); hit rate 3.1% among 360,000; AID 624483;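 active = at least 3 SD above the mean of all compounds, about 16000 in these data; inconclusive = too few beads counted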;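 also: 100 nL of 1 mM stock went into each well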
ugtP null kill: growth inhibition of ugtP-null S. aureus, primary screen, RN4220 ugtP deletion, OD600; 16 h; some inactives read as strong as hits; hit rate 0.54% among 330,000; growth inhibition, % (test concentration not listed);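 active = z-score under -3 and OD600 up to 0.15 on both plates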;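 also: plate controls were untreated wells for no effect and antibiotic for full effect; wells of about 80 µL received 100 nL stock; the first replicate is given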
Mtb hypoxia rep growth: further read-out of Mtb hypoxia rep, marked with its call; growth inhibition, %; measured here: M. tuberculosis growth (absorbance);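 0% = vehicle and 100% = reference antibiotic; read after six days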
* marks the source's active call; other numbers are inactive results; u = inconclusive; x = not tested or not shown; & = joins results of further samples.

The opening four entries as a preview:
SMILES	Mtb hypoxia rep	Mtb hypoxia rep growth	BJeLR viability	PrP 5UTR inh	RN4220 kill	Autofluor counter	ugtP null kill
Cc1ccc2cc(CCNC(=O)c3cc4ccccc4o3)c(=O)[nH]c2c1C	-3	0	2	-27	8.8	5759	14
CCC(C)(C)NC(=O)C(c1ccc(C)cc1)N(CC1CCCO1)C(=O)CCC(=O)Nc1ccccn1 (stereo not given)	-1	2	-7	-27	1.6	3852	16
COc1ccc(S(=O)(=O)NCc2ccncc2)cc1OC	6	10	15	-37	4.4	23943*	4
COC(=O)C1=C(C(=O)OC)[C@@H]2N(Cc3ccccc3)c3ccccc3[C@@]23C[C@@H](C(=O)OC)N(C(=O)COCc2ccccc2)C3=N1	x	x	-10	-13	x	3632	x

This part in full (from the top)
SMILES	Mtb hypoxia rep	Mtb hypoxia rep growth	BJeLR viability	PrP 5UTR inh	RN4220 kill	Autofluor counter	ugtP null kill
Cc1ccc2cc(CCNC(=O)c3cc4ccccc4o3)c(=O)[nH]c2c1C	-3	0	2	-27	8.8	5759	14
CCC(C)(C)NC(=O)C(c1ccc(C)cc1)N(CC1CCCO1)C(=O)CCC(=O)Nc1ccccn1 (stereo not given)	-1	2	-7	-27	1.6	3852	16
COc1ccc(S(=O)(=O)NCc2ccncc2)cc1OC	6	10	15	-37	4.4	23943*	4
COC(=O)C1=C(C(=O)OC)[C@@H]2N(Cc3ccccc3)c3ccccc3[C@@]23C[C@@H](C(=O)OC)N(C(=O)COCc2ccccc2)C3=N1	x	x	-10	-13	x	3632	x
COc1ccccc1NC(=O)CC(C)=NNC(=O)c1ccccn1	11	17	x	x	0.8	x	3
Cc1ccc(C)c(S(=O)(=O)NCC(=O)NCc2ccco2)c1	3	-2	2	1	3.8	9536	1
CC(=O)N1CSCC1C(=O)NNS(=O)(=O)c1cccc(C(F)(F)F)c1 (stereo not given)	17	3	5	-31	2.8	3740	0
COc1ccccc1N1CCN(CCC(=O)Nc2cccc(Cl)c2)CC1	-4	-9	-16	-10	1.0	2561	1
Cc1nnnn1/C(=C\c1ccccc1)C(=O)OCC(=O)N1CC2(C)CC1CC(C)(C)C2 (stereo not given)	x	x	-11	6	x	2212	x
O=C(Nc1ccc2ccccc2c1)N1CCCN(CCOc2ccccc2)CC1	-6	4	3	-20	-0.3	4495	-1
Cc1ccn2cc(C(=O)N3CCN(c4cnn(-c5ccccc5)c(=O)c4Cl)CC3)nc2c1	-3	-3	x	7	7.5	x	11
COCCNC(=O)Cn1nc(C(F)(F)F)c(Br)c1C	3	7	-1	-25	3.7	9953	-2
CCOC(=O)CN1C(=O)NC2(CCCc3ccccc32)C1=O (stereo not given)	-4	0	-6	-12	4.0	3033	4
O=C(CSc1ccccc1)N1CCN(c2ccccc2)CC1	22	26	-4	-36	10.0	3046	2
COc1cc(NC(=O)Cc2c(C(=O)O)[nH]c3ccccc23)cc(OC)c1OC	-1	6	0	-31	8.5	8409	-4

Complete entries, quoted from the list. Order of screens: Mtb hypoxia rep, Mtb hypoxia rep growth, BJeLR viability, PrP 5UTR inh, RN4220 kill, Autofluor counter, ugtP null kill
COCCNC(=O)Cn1nc(C(F)(F)F)c(Br)c1C across the screens: 3, 7, -1, -25, 3.7, 9953, -2
O=C(CSc1ccccc1)N1CCN(c2ccccc2)CC1 across the screens: 22, 26, -4, -36, 10.0, 3046, 2
Cc1ccc(C)c(S(=O)(=O)NCC(=O)NCc2ccco2)c1 across the screens: 3, -2, 2, 1, 3.8, 9536, 1
CCC(C)(C)NC(=O)C(c1ccc(C)cc1)N(CC1CCCO1)C(=O)CCC(=O)Nc1ccccn1 (stereo not given) across the screens: -1, 2, -7, -27, 1.6, 3852, 16
COc1ccccc1N1CCN(CCC(=O)Nc2cccc(Cl)c2)CC1 across the screens: -4, -9, -16, -10, 1.0, 2561, 1

More compounds follow.
SMILES	Mtb hypoxia rep	Mtb hypoxia rep growth	BJeLR viability	PrP 5UTR inh	RN4220 kill	Autofluor counter	ugtP null kill
Cc1ccc(-n2nc3c(N4CCC(C(=O)NCCc5ccco5)CC4)nnc(C)c3c2C)cc1	3	2	-1	-5	-5.1	7219	8
O=C(CSc1nnnn1C1CCCCC1)Nc1nc2c(s1)CCCC2	14	10	1	-25	10	10944	-6
CCCC[N+]12CCC(CC1)C(Cc1ccccc1)C2 (stereo not given)	-2	1	0	x	0.2	4206	1
CCOC(=O)CSc1cn2c(n1)CCC2	5	6	-7	-24	0.0	24514*	3
O=C(O)C(C(O)c1ccccc1)[n+]1ccccc1 (stereo not given)	11	7	3	2	2.2	4427	-11
Cc1ccc(N(C)S(=O)(=O)c2cccc(C(=O)Nc3ccc(N4CCOCC4)cc3)c2)cc1	0	2	x	-14	4.7	6194	7
O=C(CNc1n[nH]c(=O)[nH]c1=O)N/N=C/C=C/c1ccccc1	x	x	4	-13	x	4297	x
Cc1ccc(SC(C)c2nc(-c3ccccc3)no2)cc1 (stereo not given)	4	4	-2	75*	5.0	2385	47
COc1cccc(CNC(=O)CN2C(=O)NC(Cc3ccccc3)(c3ccccc3)C2=O)c1 (stereo not given)	26*	53*	x	-10	1.2	4158	16
Cc1nc(NC(=O)CSc2nnc(C)n2CC2CCCO2)sc1C (stereo not given)	x	x	3	-26	1.3	4140	3
CCCCSc1ncnc2[nH]ncc12	-14	0	2	0	1.7	5272	1
CCOC(=O)c1[nH]cc(-c2ccccc2)c1N1CCOCC1	8	5	x	-25	5.9	3855	10
CCOC(=O)CNS(=O)(=O)c1cc(-c2n[nH]c(=O)c3ccccc23)ccc1C	7	10	6	6	6.4	3729	2
CCOCc1nnc(NC(=O)c2cc(C(=O)OC)cc([N+](=O)[O-])c2)s1	-5	8	-2	-18	3.7	3729	4
CCC12CN(C(=O)c3ccc(C)cc3)CC(CC)(CN(C(=O)c3ccc(C)cc3)C1)C2=O	2	-3	-8	-10	8.6	2429	3

An excerpt of these results, in markdown:
| canonical_smiles | Mtb hypoxia rep | Mtb hypoxia rep growth | BJeLR viability | PrP 5UTR inh | RN4220 kill | Autofluor counter | ugtP null kill |
| --- | --- | --- | --- | --- | --- | --- | --- |
| Cc1ccc(N(C)S(=O)(=O)c2cccc(C(=O)Nc3ccc(N4CCOCC4)cc3)c2)cc1 | 0 | 2 | x | -14 | 4.7 | 6194 | 7 |
| O=C(CNc1n[nH]c(=O)[nH]c1=O)N/N=C/C=C/c1ccccc1 | x | x | 4 | -13 | x | 4297 | x |
| Cc1ccc(SC(C)c2nc(-c3ccccc3)no2)cc1 (stereo not given) | 4 | 4 | -2 | 75* | 5.0 | 2385 | 47 |

Continued.
SMILES	Mtb hypoxia rep	Mtb hypoxia rep growth	BJeLR viability	PrP 5UTR inh	RN4220 kill	Autofluor counter	ugtP null kill
CCCCc1nc(NCc2ccccc2)c(C#N)c2c1CCCC2	-7	-3	4	-25	2.3	2375	67
CC(C)CCN1CCNC(=O)C1CC(=O)NCCCN1CCOCC1 (stereo not given)	5	0	-1	-37	4.9	4662	12
Cc1cc(Cl)c(C)c(S(=O)(=O)N2CCN(C(=O)C3CCCO3)CC2)c1Cl (stereo not given)	7	-4	x	-30	0.0	5352	4
CCCOc1ccc(NC(=O)CC2C(=O)N(Cc3ccccc3)C(=S)N2Cc2cccs2)cc1 (stereo not given)	14	3	-5	-15	6.8	2759	-1
CCC(CC)c1nnc(NC(=O)C2=COCCO2)s1	10	10	0	-32	2.6	u	1
CCn1nc(C)c(C=NNC(=O)Cc2ccc(Cl)cc2)c1C	17	5	x	x	7.4	x	20
O=C(c1cc(-c2cccs2)on1)N1CCCCC1	22	27	-13	x	-0.1	10941	-1
COc1ccccc1CN1CC(C(=O)N(C)Cc2ccncc2C)CCC1=O (stereo not given)	-10	-3	0	-7	1.9	4999	3
CCCCCn1c(CNC(=O)CCC)nc2ccccc21	1	4	2	11	-4.1	5822	-8
COc1ccc(C(C)NC(=O)c2ccccc2Cl)cc1OC (stereo not given)	5	-2	-6	-18	0.7	8743	-4
O=C(Cc1ccsc1)NCC(=O)Nc1ccccc1Br	11	9	x	x	0.6	x	2
O=C(c1cc2c(s1)-c1ccccc1S(=O)(=O)C2)N1CCN(Cc2ccccc2)CC1	-2	-6	8	1	5.8	5677	10
O=C(CCc1nnc(CCCCc2ccccc2)o1)N1CCN(CCO)CC1	12	-1	-9	20	2.1	3261	9
Cc1noc(C)c1S(=O)(=O)Nc1ccc2c(c1)C(=O)N(C(C)CO)CC(C)C(CN(C)Cc1ccc(C(=O)O)cc1)O2 (stereo not given)	9	4	x	x	0.6	x	-11
O=C(c1cccs1)N1CCc2ccccc2C1	4	8	8	-13	7.5	2528	5
O=S(=O)(Nc1ccc(O)cc1)c1cccc2cccnc12	x	x	-2	-5	2.6	5957	12
CCn1c(SCC(=O)c2c(N)n(C3CC3)c(=O)[nH]c2=O)nnc1-c1ccccc1OC	-11	-2	x	-11	4.1	3735	3
COc1ccc(S(=O)(=O)Oc2cccc(C=N/N=C3/NC(=O)C(CC(=O)O)S3)c2)cc1 (stereo not given)	13	5	x	x	5.1	x	4
C=CCN1C(=O)C(C)(C)N(C(=O)c2cccc([N+](=O)[O-])c2)c2ccccc21	13	4	1	-26	7.2	4106	5
NC(=O)C1(C(N)=O)OC1c1ccc(Cl)cc1Cl (stereo not given)	2	12	15	6	3.1	3324	3
Cc1ccc(C)c(S(=O)(=O)Nc2ccc(-n3cnnn3)cc2)c1	9	5	x	-11	0.6	2828	-7
COc1ccc(C(=O)N/C(=C/c2ccco2)C(=O)NC2CCS(=O)(=O)C2)cc1 (stereo not given)	x	x	9	-8	x	4386	x
CC1(c2ccc([N+](=O)[O-])cc2)CC(C)(C)N(C(=O)c2ccccc2)c2ccccc21 (stereo not given)	3	2	0	x	3.8	x	5
CC1CCCCN1CCCNC(=O)c1nn(C)c2c1CS(=O)(=O)c1ccccc1-2 (stereo not given)	5	2	4	-11	1.5	5633	2
CC(C)c1ccccc1NC(=S)NC(C)c1ccccc1 (stereo not given)	-13	-4	4	-30	-3.9	2397	-7
C[C@H](NC(=O)c1ccccc1Cl)C(=O)NCc1cccs1	x	x	-2	-18	5.6	5488	11
CC(=O)Nc1ccc(C(=O)N/C(=C/c2ccccc2)C(=O)Nc2cccc(C(=O)O)c2)cc1	-1	3	12	-5	-0.8	3232	0
Cc1ccc(C(=O)CSc2ccc(-c3ccncc3)nn2)cc1	16	13	-1	-18	3.8	4884	-1
O=C(NCc1ccco1)C(=O)c1cn(CC(=O)N2CCCCCC2)c2ccccc12	4	-3	x	-26	0.2	5400	11
Cc1cccc(NC(=S)Nc2c(C)n(C)n(-c3ccccc3)c2=O)c1C	6	6	-9	-14	3.2	2490	3
C=CCOC(=O)C1=CC(c2ccc(Br)cc2)C(CCCO)C(OCC)O1 (stereo not given)	4&0	3&9	x	x	7.3&6.8	x	4&4
Nc1nnn(Cc2ccccc2)n1	18	10	9	-4	-7.1	3386	-4
O=C(/C=C/c1cccc(F)c1)N(c1ccccn1)C1CCCCC1	-7	0	3	-22	-0.1	2458	0
Cn1c(SCC(=O)NN=Cc2cccnc2)nnc1-c1ccccc1	-33	-35	x	x	-0.3	x	3
Cc1ccc(-c2nc(C)c(C(=O)O)s2)cc1	-1	3	-4	-86	5.9	2663	4
O=C(NCc1ccco1)c1ccc2ccccc2n1	15	16	3	-20	6.2	4161	1
Cc1ccc(C)c(N(C(=O)CNC(=O)c2ccco2)C(C(=O)NC2CCCCC2)c2cccnc2)c1 (stereo not given)	5	7	15	-31	3.1	5869	15
O=C(c1cccnc1)N1CCN(CCCc2ccccc2)CC1	3	9	-3	-23	4.0	7868	6
O=C(c1cc2ccccc2o1)N1CCN(c2cccc(Cl)c2)CC1	10	7	-10	-10	2.5	5710	1
